Compound activity from PubChem.
HCMV NEC inh = inhibitors of HCMV UL50-UL53 interaction, biochemical, HTRF. AID 1918969, 2023. inhibition, % (test concentration not listed). hit rate 0.15% among 190,000. normalized percent inhibition;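 active = both replicates at 50% or more, plus weaker picks with an unusually low signal ratio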;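 also: stock transfer was 100 nL into about 20 µL; 0% = negative control wells and 100% = wells with untagged competitor protein; inactives centre near -12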
GIV Gai3 FP = inhibitors of GIV peptide binding to Galpha-i3, primary screen, biochemical, fluorescence polarization, FITC-GIV GBA peptide, rat Galphai3. 90 min; active compounds read low; scaled: aluminum fluoride 0%, vehicle 100%. AID 1224905, 2016. hit rate 0.42% among 210,000. percent of control (FP), % (test concentration not listed). Guanine nucleotide-binding protein G(i) subunit alpha-3 (Rattus norvegicus), P08753;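 active = replicate mean at 85% of control or lower, very high polarization wells dropped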;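 also: lower values mean more displacement of the GIV peptide from Galpha-i3; wells of about 15 µL received 100 nL stock; the first replicate is given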
Target sequence (P08753 whole entry, looked up): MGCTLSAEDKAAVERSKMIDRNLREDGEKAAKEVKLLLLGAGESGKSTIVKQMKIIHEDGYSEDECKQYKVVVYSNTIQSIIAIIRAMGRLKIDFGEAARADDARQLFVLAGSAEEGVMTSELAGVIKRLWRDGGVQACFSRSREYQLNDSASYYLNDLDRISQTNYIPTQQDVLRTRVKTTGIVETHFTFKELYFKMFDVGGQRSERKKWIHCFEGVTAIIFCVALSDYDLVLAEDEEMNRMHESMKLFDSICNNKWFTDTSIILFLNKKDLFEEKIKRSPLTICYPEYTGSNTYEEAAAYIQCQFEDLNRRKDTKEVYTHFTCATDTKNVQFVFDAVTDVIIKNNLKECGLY
Sa growth 42C = S. aureus growth inhibition at 42 and 30 °C, primary screen, LtaS inhibitor project, RN4220, two temperatures. OD600, 20 h, 42 °C; active compounds read low. relative growth, % (no concentration beside the values). hit rate 0.53% among 170,000. AID 720641, 2013;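 active = growth at 42 °C up to 50% and 20 or more points under that at 30 °C, or under 10% at both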;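 also: 300 nL library stock went into each well; scaled to the means of positive and negative controls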
Sa growth 42C second temp = also measured in Sa growth 42C; calls as there; relative growth, %; measured here: growth at 30 °C;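 optical density after 20 h as mean of two plates; 100% = untreated growth and lower means inhibition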
Starred values were filed as active, the others as inactive; nt = not tested or not shown; & = joins results of further samples.

Molecule	Sa growth 42C second temp	HCMV NEC inh	GIV Gai3 FP	Sa growth 42C
Cc1cc(=O)[nH]c(SCC(N)=O)n1	79	nt	107	88
COc1cc(C(=O)NC(=S)NN2CCN(C)CC2)cc(OC)c1OC	94	-30	nt	102
Cc1cc(C)cc(N(CC(=O)N2CCCC2)S(=O)(=O)c2c(C)nn(C)c2C)c1	nt	-4	101	nt
CCCn1cnc2sc3c(c2c1=O)CCCC3	86	2	100	93
CC(CCC(=O)O)C1CCC2C3C(O)CC4CC(O)CCC4(C)C3CC(O)C12C (stereo unspecified)	71	4	102	94
O=C(CSc1nn(-c2ccccc2)c(=S)s1)N1N=CCC1c1ccccc1 (stereo unspecified)	91	nt	97	102
CCCCn1nc(CC(=O)O)c2ccccc2c1=O	94	-19	101	102
c1ccc(Oc2nnc(-c3ccccc3)c3ccccc23)cc1	83	-8	nt	109
COc1ccc(NC(=O)C2CCC(CNS(=O)(=O)c3cccc4nsnc34)CC2)cc1 (stereo unspecified)	78	-20	101	95
NC(=O)c1cccc(S(=O)(=O)N2CC(c3ccccc3)CC2=O)c1 (stereo unspecified)	85	-8	nt	117
CCOC(=O)c1c(NC(=O)Cc2ccc(Cl)cc2)sc(C(=O)Nc2ccc(OC)cc2OC)c1C	nt	-15	99	nt
O=C(COc1ccccc1F)NC(=Nc1ccccc1)c1ccccc1	88	-18	nt	94
CCC1Oc2cc(S(=O)(=O)N3CCCC(C(=O)N4CCc5ccccc54)C3)c(C)cc2NC1=O (stereo unspecified)	nt	-21	103	nt
CCOc1ccc(-c2noc(N3CCC(C(=O)N4CCN(CC)CC4)CC3)n2)cc1OC	nt	-5	99	nt
CC(C)Nc1nc2cccnc2s1	85	-2	100	108
CC(=O)N1CCc2cc(C(O)CN3CCN(c4ccccc4)CC3)ccc21 (stereo unspecified)	94	4	103	99
Cc1ccc2cnn(C(=O)Nc3ccc4c(c3)OCCO4)c2c1	nt	-15	100	nt
CC(C)(C)c1cc(C(=O)O)cc(C(C)(C)C)c1O	85	-24	101	117
COc1ccc2c(c1)Cc1sc(NC(=O)c3ccccc3Br)nc1-2	94	12	107	116
COc1ccccc1NC(=O)c1cc(S(=O)(=O)N2CCN(c3ccccc3Cl)CC2)ccc1F	88	nt	102	94
CC(=O)N1CCc2cc(N=Cc3ccc(O)cc3)ccc21	86	nt	109	103
COc1ccc(NC(=O)c2c(C)oc3ccc(O)c(CN4CCCCCC4)c23)cc1Cl	64	31	110	83
N#CC1=C(N)SC(N)=C(C#N)C1c1ccccc1F	55	-20	nt	68
Cc1[nH]c(-c2ccc(F)cc2)cc1C(=O)NCCCN1CCN(C2CCCCC2)CC1	85	nt	101	104
CCn1c(SCC(=O)Nc2ccc(C)c(C)c2)nnc1-c1nonc1NC(C)=O	92	21	102	106
COc1ccc(C(C)C)cc1S(=O)(=O)N1CC(C)OC(C)C1 (stereo unspecified)	82	-15	99	93
COc1ccccc1N1CCN(S(=O)(=O)c2ccc(-n3cnnn3)cc2)CC1	89	1	102	99
CN(Cc1ccccc1)C(=O)CC(=O)Nc1ccc2nc3n(c(=O)c2c1)CCCCC3	nt	-31	103	nt
CCCCN(CCCC)CCNC(=O)CN1C(=O)CSc2ccc(S(=O)(=O)N3CCOCC3)cc21	86	nt	104	128
CN(C(=O)COc1cccc(CO)c1)c1ccccc1	98	-1	106	97
CCCC(CCC)C(=O)Nc1cc(C)nn1-c1ncnc2c1cnn2-c1ccc(Cl)cc1	nt	-22	101	nt
Cn1cnnc1SCC(=O)N1c2ccccc2Sc2ccc(C(F)(F)F)cc21	nt	-11	102	nt
O=C(Cn1c(C(F)(F)F)nc2ccccc21)NN=C1CCCC1	94	1	nt	81
C=CCn1c(N)c(C#N)c2nc3ccccc3nc21	71	-43	nt	77
COCCN1CCC(OC(C)=O)C(C)C1C (stereo unspecified)	88	-11	102	100
O=C(Nc1ccccc1)c1cccnc1N1CCOCC1	82	-22	100	116
CCOc1ccc(NC(=O)CCNS(=O)(=O)c2cccc3nonc23)cc1	89	-100	102	117
CN1C(=O)/C(=C/c2ccco2)N(C)C1=S	72	-26	98	98
CN1CC2CCC1CC(NC(=O)c1ccccc1)C2 (stereo unspecified)	95	-4	101	105
CCOc1ccc(OCC)c(NC(=O)c2cnc3c(-c4ccccc4)c(C)nn3c2C)c1	81	nt	104	104
CCOC(=O)c1[nH]c(C)c(S(=O)(=O)N2CCN(C3CCCCC3)CC2)c1C	nt	2	106	nt
CN1CCN(c2nc3c(c(=O)[nH]c(=O)n3C)n2CC(=O)c2ccc(Br)cc2)CC1	nt	-19	104	nt
N#Cc1ccc(NC(=O)c2nc3ncccn3n2)cc1	78	-10	101	102
COc1ccccc1C(=O)CC1(O)C(=O)N(CC(N)=O)c2ccccc21 (stereo unspecified)	83	-34	106	104
CCN(Cc1cc2ccccc2[nH]c1=O)S(=O)(=O)c1ccccc1	nt	15	105	nt
CN1CCCN(C(=O)c2ccc(Oc3ccccc3)cc2)CC1	91	-11	nt	103
Cc1ccc(NC(=O)CN2C(=O)COc3ccc(S(=O)(=O)N4CCOCC4)cc32)c(Cl)c1	85	nt	106	120
Cc1ccc(CN2C(=O)c3oc4ccc(C)cc4c(=O)c3C2c2ccc(O)cc2)cc1 (stereo unspecified)	95	-51	100	99
O=C1CCS(=O)(=O)CC1	97	-4	97	106
O=C1COc2ccc(S(=O)(=O)N3CCN(C(=O)c4cc5ccccc5[nH]4)CC3)cc2N1	nt	-28	106	nt
Cc1ccccc1NC(=O)C1CCN(S(=O)(=O)c2c(C)noc2/C=C/c2ccco2)CC1	88	-24	102	111
CCOc1ccc(NC(=O)c2ccc3c(c2)c(C)c(C)n3Cc2ccc(F)cc2)cc1	86	nt	109	118
COc1ccc(CN=C(Nc2ccccc2)SC2CC(=O)NC2=O)cc1 (stereo unspecified)	85	nt	98	115
Cc1ccccc1CNC(=O)CCC(=O)N1CCSc2ncccc21	103	-1&-2	103&101	89
CCc1cc2c(SCC(=O)Nc3ccc(S(=O)(=O)N4CCOCC4)cc3)ncnc2s1	95	1	nt	100
ON/C=N/c1ncc(C(F)(F)F)cc1Cl	84	-9	103	100

(further entries)
Molecule	Sa growth 42C second temp	HCMV NEC inh	GIV Gai3 FP	Sa growth 42C
CCc1nnc2c(NCc3ccccc3)nc3ccccc3n12	92	-5&25	108&104	101
CC(O)c1ccc(OCc2c(F)cccc2Cl)cc1 (stereo unspecified)	nt	2	97	nt
CCN(CC)C(=O)C1Sc2nnc(-c3ccccc3)n2NC1c1ccc(C)cc1 (stereo unspecified)	88	nt	102	112
O=S(=O)(c1ccc2ccccc2c1)N1CCCCC1	99	nt	105	95
COC(=O)C1=C(C)NC2=C(C(=O)CC(c3ccc(OC)c(OC)c3)C2)C1c1cc(OC)c(OC)c(OC)c1 (stereo unspecified)	nt	-64	95	nt
COc1cc([N+](=O)[O-])cc2c1NC(c1cccc(Cl)c1Cl)C1CC=CC21 (stereo unspecified)	nt	-10	107	nt
CCOC(=O)c1ccc(NC(=O)Cn2c(=O)n(Cc3nc(C)no3)c(=O)c3ccccc32)cc1	nt	-10	106	nt
CCC1CCc2sc(C(=O)N=c3sccn3C)cc2C1 (stereo unspecified)	95	4	nt	103
Cc1ccc(C(=O)Nc2cccc3cccnc23)cc1Cl	92	-5	105	98
Cc1ccc(CN(CC(=O)N2CCN(c3ccc(F)cc3)CC2)S(=O)(=O)c2ccccc2)cc1	nt	-5	105	nt
CCN1c2cc(C)ccc2-n2cccc2C12CCN(C(=O)Nc1cc(OC)c(OC)c(OC)c1)CC2	85	nt	99	95
CCCN(CCC)C(=O)Nc1ccc(CC)cc1	98	13	109	104
CC1(C)CC2CC(C)(CN2C(=O)CSCC(=O)O)C1 (stereo unspecified)	99	22	nt	105
CCOc1ccc2nc(NC(=O)CC3Oc4ccccc4NC3=O)sc2c1 (stereo unspecified)	nt	-6	98	nt
COc1ccccc1OCC(O)CN1CCN(CC(=O)Nc2c(C)cccc2C)CC1 (stereo unspecified)	88&108&94	-34&-39&6&-5&5&-23&-5	102&102	91&106&98
CN(c1ccccn1)S(=O)(=O)c1cc(Cl)ccc1Cl	91	-4	nt	76
O=C1NC2(CCCCC2)C(=O)N1c1ccc(Cl)cc1	81	10	99	109
COc1ccc(-n2c(SCC(=O)NCc3ccc(C)cc3)nc3n[nH]c(C)c3c2=N)cc1	69	nt	100	87
Cn1c(=O)n(C2(C)CSC2)c2ccccc21	91	-6	nt	92
CCOc1c(Nc2ccc(OC)c(OC)c2)c(=O)c1=O	nt	-52	102	nt
CCOC(=O)c1nnc(-c2ccc3c(c2)OCO3)o1	87	-34	101	85
COc1ccc(N(C)C(=O)C(NS(=O)(=O)c2cccc3nsnc23)c2ccccc2)cc1 (stereo unspecified)	101	-49	96	121
COc1ccc(CC(=O)Nc2sc3c(c2C(=O)Nc2c(C)cccc2C)CCCCC3)cc1	90	-31	104	112
COc1ccc(NC(=O)c2nnc(C(=O)NCC3CCCO3)s2)cc1 (stereo unspecified)	nt	-13	108	nt
CCOc1nc(C#N)nc(N2CCCCC2)n1	90	7	102	103
CC(=O)NCCc1csc(-c2ccccc2)n1	91	nt	105	105
CCc1ccc(-n2nc(C)c3c(C(=O)Nc4cc(OC)cc(OC)c4)cc(C)nc32)cc1	78	nt	104	79
Cc1ccc(C)n1-c1ccc(C(=O)N/N=C/c2ccncc2)cc1	93	-19	nt	81
CCOC(=O)Cn1nc(-c2nonc2N)nc1-c1nonc1N	90	-10	104	92
CC(C)c1ccc(OCc2ccc(C(=O)N(C)C)o2)cc1	85	-11	nt	94
COC(=O)C1=C(C)OC(N)=C(C#N)C1c1ccc([N+](=O)[O-])cc1 (stereo unspecified)	nt	-60	102	nt
COCCn1cnc2c1c(=O)n(CC(=O)OCC(=O)NC1CCCC1)c(=O)n2Cc1ccccc1	92	7	nt	95
FC(F)(F)c1ccc2nnn(OCc3nnc(-c4ccccc4)o3)c2c1	88	-3	nt	97
CC(C)c1cc(C(=O)NCc2ccccc2)no1	88	-17	104	106
O=C(NCCCNC1CCCCC1)c1ccc(/C=N/O)nc1	88	-41	98	91
COc1ccc(N2C(=O)NC(=O)/C(=C\c3ccccc3OCCBr)C2=O)cc1	nt	-7	98	nt
N#C/C(=C(/O)c1cc2ccccc2o1)c1nc2ccccc2s1	24	1	nt	67
CCCOc1ccc(C(=O)NCC2COc3ccccc3O2)cc1OC (stereo unspecified)	nt	9&-2&-9	98	nt
Cc1ccccc1-c1noc(N)c1C#N	64	3	132	108
COC(=O)/C=C/CSc1nnc(-c2ccc(Cl)cc2Cl)o1	71	-5	nt	93
COc1ccc(NC(=O)CNC(=O)Cn2c(C)cc3ccccc3c2=O)cc1OC	86	-18	102	117
O=C(CSc1nccn1Cc1ccco1)Nc1ccc(OC(F)(F)F)cc1	88	nt	99	105
COC(=O)c1ccc(C(=O)OC)c(NC(=S)N2CCCC2)c1	87	nt	104	100
CCc1ccc(NC(=O)Cn2c3ncccc3c(=O)n2-c2ccc(C)cc2)cc1	nt	-6	105	nt
COc1ccc(S(=O)(=O)NCCc2cc3ccc(OC)cc3[nH]c2=O)cc1	88	nt	102	86
COc1cc(OC)c(N(C)C(=O)c2sc3nc4n(c(=O)c3c2C)CCCC4)cc1Cl	88	-13	103	118
CCOc1ccccc1CNC(=O)CSc1nnc(C)c2c(C)n(-c3ccccc3)nc12	94	nt	103	112
CCN(CC)CC(=O)N1N=C(c2cccs2)CC1c1ccccc1O (stereo unspecified)	97	-26	108	121
Nc1nc2c(C(=O)NCc3ccncc3)nnn2c2ccccc12	87	-29	99	94
CCN(CC1COc2ccccc2O1)C(=S)Nc1ccccc1 (stereo unspecified)	100	-5	111	116
C#CCSc1nc(COC)cc(=O)[nH]1	94	-5	106	103
